Assay outcomes deposited in PubChem by National Center for Advancing Translational Sciences (NCATS).
VDR inh = inhibitors of human vitamin D receptor | VDR-SRC2-3 peptide fluorescence polarization, 2 h | 400,000 compounds, 0.93% hits | Potency, µM, for the others: max response, negative = inhibition, actives largely listed as inhibitors | P11473; active = well fitted inhibition curve with a large enough effect; inconclusive = small, poorly fitted or top-dose-only effect, or another doubt; inactive = no such curve, though single readings can be large or run the other way; note: series mostly up to about 120 µM
Target sequence (P11473 whole entry, looked up): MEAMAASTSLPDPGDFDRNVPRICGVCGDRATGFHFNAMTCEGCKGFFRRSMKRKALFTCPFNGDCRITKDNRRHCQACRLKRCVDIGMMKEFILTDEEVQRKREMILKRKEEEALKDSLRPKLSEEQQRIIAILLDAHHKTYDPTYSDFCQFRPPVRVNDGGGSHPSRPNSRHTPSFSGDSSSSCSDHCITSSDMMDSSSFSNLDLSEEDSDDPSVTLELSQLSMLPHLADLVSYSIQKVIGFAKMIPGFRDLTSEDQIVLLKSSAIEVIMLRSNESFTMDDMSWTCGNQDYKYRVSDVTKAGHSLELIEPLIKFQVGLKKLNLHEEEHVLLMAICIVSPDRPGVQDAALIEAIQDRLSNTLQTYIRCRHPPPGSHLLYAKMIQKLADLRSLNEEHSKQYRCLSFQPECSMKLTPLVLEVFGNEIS
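Fluorescence polarization assay measuring small-molecule disruption of VDR binding to the coregulator peptide SRC2-3. Compounds were pin-transferred (23 nl) into the reagent mix and incubated 2 h at room temperature before reading.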
Starred values were filed as active, the others as inactive; u = inconclusive; & = joins results of further samples; [ ] = another dose, or the depositor's remark. % is set by controls: 0 for no effect and ±100 for the full control effect; potency is the fitted concentration of half-maximal effect.

structure	VDR inh
NC(=O)C1CCN(C(=O)C23CC4CC(CC(C4)C2)C3)CC1	-1%
Cc1cc(C(=O)N/N=C/c2ccc(C)o2)c2ccccc2n1	2%
O=C(NCc1ccncc1)C(=O)NCC1OCCN1S(=O)(=O)c1ccc(Br)cc1 (stereo not drawn)	-6%
N=c1c(C(=O)NC2CCCCC2)cc2c(=O)n3ccccc3nc2n1Cc1cccnc1	-22%
COC(C(=O)Nc1ccc(S(=O)(=O)Nc2ccc(C)c(C)c2)cc1)c1ccccc1 (stereo not drawn)	-5%
NC(=O)C1(N2CCCCC2)CCN(Cc2ccc(Br)cc2)CC1	-21%
CC1CCN(C(=O)CN(c2cccc(F)c2)S(C)(=O)=O)CC1	14%
Cc1nc2ccc(NS(=O)(=O)c3c(F)cc(F)cc3Br)cc2s1	-16%
O=C(NC(=S)NC1CCSC1=O)c1cccs1 (stereo not drawn)	-23%
C=CCn1c(CC(=O)Nc2ccc(C)cc2C)nnc1SCC(=O)N1CCOCC1	-15%
COc1ccc(C(=O)NCC(=O)n2nc(C)cc2C)cc1OC	1%
Cc1ccc(Cn2c(C(C)Nc3nc(-c4ccc(Cl)c([N+](=O)[O-])c4)cs3)nc3cc(C(F)(F)F)ccc32)cc1 (stereo not drawn)	-11%
COCCNC(=O)Cn1cc(/C=N/NC(=O)c2ccc(Oc3ccc(O)cc3)cc2)c2ccccc21	-6%
C[C@H](CO)N1C[C@H](C)[C@@H](CN(C)Cc2ccncc2)Oc2c(NC(=O)CCCCCC(=O)Nc3ccccc3N)cccc2C1=O	-3%
COc1ccc(C2C=C(c3ccccc3)Nc3nc(NC(=O)/C=C/c4ccccc4OC)nn32)cc1 (stereo not drawn)	13%
CCCc1ncc(C(=O)c2ccc(OC)cc2)n1C	1%
Cc1nc(C#N)c(N/N=C/c2c(F)cccc2Cl)o1	79µM*
CCOC(=O)CSc1nnc(-c2ccc(OC)cc2OC)o1	4%
O=C(Nc1ncc2c(n1)-c1ccccc1OC2)c1ccc(Cl)cc1Cl	8%
CCc1cc2c(cc(C(=O)O)n2C)s1	13%
CC(C)n1c(SCC(=O)Nc2ccc3c(c2)OCO3)nc2c1c(=O)n(C)c(=O)n2C	-1%
COC(=O)c1ccc(NC(=O)n2ncc3c(C)cccc32)cc1	15%
CC1CCN(C(=O)CSc2nnc(Cc3cc(=O)[nH]c(=O)[nH]3)n2-c2ccc(Cl)cc2)CC1	-14%&-4%
O=C(CN1C(=O)NC2(CCOc3ccccc32)C1=O)c1ccc(Cl)cc1 (stereo not drawn)	9%
CN1/C(=C\C=O)C(C)(C)c2ccccc21	-4%
CC(C)C(=O)Nc1ccc(C(=O)NC2CCSC2=O)cc1 (stereo not drawn)	-8%
Cc1cccc(C)c1NC(=O)CN(C)C(=O)CC1Sc2ccccc2NC1=O (stereo not drawn)	-4%
COc1ccc(C(=O)NCCCOc2cccc(NC(C)=O)c2)cc1	-12%
S=C(N/N=C/c1ccc(Cl)cc1)N1CCOCC1	-11%
C=CCn1c(SCC(=O)NC2CCCCC2)nc2ccccc2c1=O	-20%
Cc1cccc(N(C)c2nc3ccc(C(=O)c4ccccc4)cc3n3c(C)nnc23)c1	-1%
Cc1ccc(C(=O)O)cc1NC(=O)c1cccs1	1%
O=c1nc2n(c3cc(Cl)c(S(=O)(=O)N4CCOCC4)cc13)CCCCC2	3%
CCN(CC)c1ccc(NC(=O)CN2C(=O)c3cccnc3Sc3ccccc32)c(C)c1	7%
Cc1cccc(OCC(=O)NCCNC(=O)c2ccco2)c1	4%
COC(=O)c1c(NC(=O)CN2CCC3(O)CCCCC3C2c2cc(OC)ccc2OC)sc(C)c1C (stereo not drawn)	6%
O=C(CN1C(=O)c2ccccc2S1(=O)=O)Nc1ccccc1C(=O)NCc1ccco1	-5%
CCCOc1ccc(/C=C/c2c([N+](=O)[O-])c(=O)n(C)c(=O)n2C)cc1	5%
Cn1cc(CC(=O)N2CCN(c3ccc(Cl)cc3)CC2)c2ccccc21	8%
CCOC(=O)C1CCN(S(=O)(=O)c2c(C)[nH]c(C)c2C(=O)N2CCCC2)CC1	-13%
CCn1c(=O)n(CC)c2cc(S(N)(=O)=O)c(C)cc21	-9%
Cc1ccc(-c2cn3ccc(C)cc3n2)cc1	-1%
CCn1cc(C(=O)N[C@H](C(=O)NC(C)(C)CO)C(C)C)c(=O)c2cc3c(cc21)OCO3	17%
CC(C)(C)n1cnc2cc(NS(=O)(=O)c3ccccc3)ccc21	1%
Cc1c(C)c(C)c2[nH]c(=S)[nH]c2c1C	10%
C=C(C)C1CC=C(C)/C(=N/NC(=O)COc2ccc(Cl)cc2)C1 (stereo not drawn)	-6%
CCc1ccc(NC(=O)c2ccc(NC3=NC4CS(=O)(=O)CC4S3)cc2)cc1 (stereo not drawn)	-2%
O=C(NNC(=O)c1cccc([N+](=O)[O-])c1)c1ccncc1	0%

The list goes on, starting with the last three of the part before.
structure	VDR inh
C=C(C)C1CC=C(C)/C(=N/NC(=O)COc2ccc(Cl)cc2)C1 (stereo not drawn)	-6%
CCc1ccc(NC(=O)c2ccc(NC3=NC4CS(=O)(=O)CC4S3)cc2)cc1 (stereo not drawn)	-2%
O=C(NNC(=O)c1cccc([N+](=O)[O-])c1)c1ccncc1	0%
O=C(Nc1ccc(C(=O)N2CCN(c3ccccc3)CC2)cc1)C1=CSCCO1	-19%
CN1C(=O)CSc2ccc(C(=O)O)cc21	-7%
COc1ccc(OC)c(-n2c(SCC(=O)N3CCc4ccccc43)nc3c(c2=O)SCC3)c1	-14%
CN1CCN(C(c2ccc(C(F)(F)F)cc2)c2ccc3cccnc3c2O)CC1 (stereo not drawn)	32µM*
OC(c1ccccn1)(c1ccccn1)c1ccccn1	-3%
COCC(C)NC(=O)Cn1c(SCc2ccccc2)nc2ccccc21 (stereo not drawn)	11%&4%
COc1ccc(C(=O)NC(=S)NC(C)C)cc1Br	-7%
COC(=O)/C=C/c1c(C)nc(NCc2ccccc2)nc1Cl	-6%
Cn1c(CC(=O)Nc2ccccc2)nnc1SCC(=O)NC1CCCC1	11%
CN(Cc1ccccc1)C(=O)COC(=O)c1ccc2c(c1)OCO2	0%
COc1cc(C(=O)N/C(=C/c2ccc(F)cc2)C(=O)NC(C(=O)O)c2ccccc2)cc(OC)c1OC (stereo not drawn)	-4%
CCN1CCN(CC(=O)Nc2ccc(C)c(Br)c2)CC1	6%
COc1ccc(CC(=O)Nc2ccc(S(=O)(=O)NCC3CCCO3)cc2)cc1 (stereo not drawn)	13%
Fc1ccc(Nc2ccnc(C(F)(F)F)c2)cc1	11%
CCOc1ccc(C(CC(=O)O)N2Cc3ccccc3C2=O)cc1OC (stereo not drawn)	-14%
COc1ccc(Oc2nc(-c3cccnc3)nc3ccccc23)cc1	5%
CC(=O)Nc1cc(C(=O)N2CCCC2)ccc1Sc1ccc(Cl)cc1	0%
O=C(CN1C(=O)COc2ccccc21)N(Cc1cccnc1)Cc1cccc(F)c1	8%
Cc1cccc(-n2nnc3c(=O)n(CC(=O)Nc4cc(C)on4)cnc32)c1	-11%
NC(=O)c1ccccc1OCC(=O)N1CCCC1c1ccc2c(c1)OCCCO2 (stereo not drawn)	16%
O=C(Nc1ccc(S(=O)(=O)N2CCCC2)cc1)c1ccccc1	6%
CC(=O)NCc1ccc(S(=O)(=O)NC(C)CCc2ccccc2)cc1 (stereo not drawn)	14%
Cc1ccc(C)c(N2CCN(C(=O)c3cc4ccccc4oc3=O)CC2)c1	-16%
COC(=O)N(C)c1nc2ccccc2s1	18%
O=C(Nc1cccnc1)C1CCN(S(=O)(=O)c2ccc(Cl)cc2)CC1	3%
CC1CCN(S(=O)(=O)N2CCC(C(=O)NCCC3=CCCCC3)CC2)CC1	-26%
O=C(O)COc1ccc2c3c(c(=O)oc2c1)CCC3	8%
Cc1cc(C)c(OCC(=O)OC(C)C(=O)NCc2ccccc2)c(C)c1 (stereo not drawn)	1%
COc1ccc(NC(=S)c2ccc3ccccc3n2)cc1	u
CC1=CC(=O)C2C(C)(C)CCC[C@@]2(C)[C@@]1(O)CCc1ccoc1 (stereo partly drawn)	50µM*
Cc1[nH]n(-c2ccc(Cl)c(Cl)c2)c(=O)c1CCO	3%
CCOC(=O)N/N=C(\C)c1ccc(C)c([N+](=O)[O-])c1	2%
CCCCCCC1CCC(C(=O)Nn2c(C)nc3ccccc3c2=O)CC1 (stereo not drawn)	6%
COc1ccc2cc(CN(CCO)C(=O)c3ccc(Br)cc3)c(=O)[nH]c2c1	-16%
O=C(O)c1ccc2c(=O)n3c(nc2c1)/C(=C/c1ccc(C(F)(F)F)cc1)CC3	-19%
Cc1cccc(C)c1Nc1c(-c2ccccn2)nc2ccc(Cl)cn12	-4%
CCOc1ccccc1OCCOCCN1CCN(Cc2ccccc2)CC1	-6%
O=C(NC1CCCCCC1)c1ccc(CN2CCOCC2)cc1	-4%
CCN(CC)C(=O)COc1ccc2oc(C)c(C(=O)OC)c2c1	-3%
COc1ccc(-c2csc3ncnc(N4CCN(S(=O)(=O)c5ccc(C(C)=O)cc5)CC4)c23)cc1	-4%
COc1ccc(CNC(=O)C(=O)NCC(c2ccco2)N2CCOCC2)cc1 (stereo not drawn)	-2%
CCc1cc(=O)oc2cc(C)cc(OCC(=O)NCc3ccncc3)c12	-4%
CCCC(C(=O)NCc1cccc(Cl)c1)N1Cc2ccccc2C1=O (stereo not drawn)	6%
O=C(c1cc2ccccc2o1)N1CCN(c2ncccn2)CC1	-1%
CC(C)CC(=O)NC(=S)Nc1ccccc1N1CCCC1	-24%
C[C@]12C(=O)N(c3ccc(Cl)cc3)C(=O)N1[C@H]1c3ccccc3OC[C@@H]1[C@H]2c1ccccc1	-10%
O=C(C1CCN(c2nnc(-n3cccc3)s2)CC1)N1CCOCC1	-10%
COc1ccc(OCC(O)Cn2c(N)nc3c2c(=O)[nH]c(=O)n3C)cc1 (stereo not drawn)	-4%
COc1cc(C[C@@H](C)[C@@H](C)Cc2ccc(O)c(OC)c2)ccc1O	8%
CC1N(C)c2cc(NC(=O)c3ccco3)ccc2C1(C)C (stereo not drawn)	39%[activator]
Cc1cccc(-n2c(-c3ccco3)nc3c(cnn3-c3ccccc3C)c2=O)c1	-11%
CN(C)CCn1c2c(c(SCC(=O)Nc3ccc4c(c3)OCCO4)nc1=O)CCCC2	1%
Cc1ccc(CC(=O)N2CCN(S(=O)(=O)c3ccccc3)CC2)cc1C	1%
CC(C)(C)c1cc(O)c(C(C)(C)C)cc1O	28µM*
CCOC(=O)CN(C(=O)c1snc(C(N)=O)c1N)C(C(=O)NCCC(C)C)c1ccc(F)cc1 (stereo not drawn)	9%
O=C1c2ccccc2S(=O)(=O)c2cc(C(=O)N3CCN(c4ccccc4)CC3)ccc21	-11%
CCn1c(C)c(C)c2cc(C(=O)NCCc3ccco3)ccc21	2%
CC(C)(C)NC(=O)C(=O)NNC(=O)COc1ccc(Br)cc1	-20%
CC(NC(=O)c1cc2cc(Cl)ccc2oc1=N)c1ccccc1 (stereo not drawn)	-10%
COc1ccc(-c2nc3cnc(Oc4ccccc4)nc3n(CCC#N)c2=O)cc1	-1%

Next part.
structure	VDR inh
Cc1ccc2ccccc2c1COC(=O)c1nonc1N	20%
Cc1nn(-c2ccc(N3CCOCC3)nn2)c(C)c1CCC(=O)NCc1ccc(F)cc1	1%&8%
COc1ccc([N+](=O)[O-])cc1NC(=O)C1CCCO1 (stereo not drawn)	-5%
O=C1C(=O)N(CCN2CCOCC2)C(c2ccc(F)cc2)/C1=C(/O)c1ccc(S(=O)(=O)N2CCOCC2)cc1 (stereo not drawn)	14%
Cc1cc(NC(=O)c2cccnc2)ccc1NC(=O)c1ccco1	6%
COc1cc(-c2nnc(SCc3c(F)cccc3Cl)o2)cc(OC)c1OC	-5%
O=C(Nc1ccc(F)cc1)c1ccccc1NC(=O)C1CC=CCC1C(=O)O (stereo not drawn)	5%
O=C(NCCc1ccc(Cl)cc1)c1ccc2c(c1)N(Cc1ccc(F)cc1Cl)C(=O)CS2	-7%
Cc1ccc(C)c(OCCC(=O)NNC(=O)c2ccccc2)c1	4%
C=CCNC(=S)Nc1ccc(C(N)=O)cc1	-13%
CCc1ccccc1NC(=O)CCC(=O)N1CC(C)Oc2ccc(C)cc21 (stereo not drawn)	4%
CC1CCCCN1S(=O)(=O)c1ccc(S(=O)(=O)N2CCN(c3ccccc3)CC2)cc1 (stereo not drawn)	3%
O=C(Cn1ccc(C(F)(F)F)n1)N/N=C/c1cccs1	13%
CCOC(=O)N1CCN(C(=O)C2COc3ccccc3O2)CC1 (stereo not drawn)	-11%
O=C(CCCN1C(=O)/C(=C/c2ccccc2)SC1=S)Nc1ccc(O)cc1	15%
CCOc1ccccc1-n1c(SCC(=O)NC)nnc1-c1ccco1	10%
Cc1ccc(CNC(=O)CSc2nc(=O)n3cccc(C)c3n2)cc1	-4%
CCc1ccc(OCC(=O)Nc2ccc3c(c2)COC3=O)cc1	-2%
Cc1cccc(C(=O)NCC(c2ccc3c(c2)OCO3)N2CCOCC2)c1 (stereo not drawn)	6%
Oc1ccc(N=C/C=C/c2cccc(Br)c2)cc1-c1nc2ccccc2s1	u
C=CCC1NS(=O)(=O)OCC1NC(=O)OCC(Cl)(Cl)Cl (stereo not drawn)	-8%
CCCN1CCN(C(=O)Cn2ncc3c4ccccc4n(Cc4cccc(Cl)c4)c3c2=O)CC1	16%

These rows are one share of the data; the hit share may differ from the screen's.
